Screening results as filed in PubChem BioAssay.
Rce1 inh: inhibitors of yeast Ras-converting enzyme | AID 2563 | Q03530 | actives 0.27% (n = 290,000) | yeast membranes, quenched prenylated peptide cleavage fluorescence | calls only;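 active = fall in fluorescence gain of 50% or more versus controls, with final raw signal at or below 3038400; inconclusive = same 50% fall but final raw signal above 3038400; inactive = fall in fluorescence gain under 50%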;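 note: plate controls were neutral control wells for no effect and wells lacking membranes for full effect; tested at 10 µM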
Target sequence (Q03530 whole entry, looked up): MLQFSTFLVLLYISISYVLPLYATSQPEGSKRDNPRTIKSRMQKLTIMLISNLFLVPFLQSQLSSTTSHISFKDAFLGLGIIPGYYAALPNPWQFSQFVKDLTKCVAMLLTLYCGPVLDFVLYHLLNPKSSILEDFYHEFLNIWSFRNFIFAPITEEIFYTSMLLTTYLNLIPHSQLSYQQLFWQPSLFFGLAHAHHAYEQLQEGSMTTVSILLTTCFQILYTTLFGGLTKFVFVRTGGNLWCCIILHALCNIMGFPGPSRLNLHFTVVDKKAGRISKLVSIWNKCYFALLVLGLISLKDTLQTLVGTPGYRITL
Yeast UUG start: alters start codon recognition fidelity in yeast; AID 602363; actives 0.13% (n = 350,000); activity score, % at 18.7 µM; S. cerevisiae UUG-firefly luciferase reporter, luminescence/redox ratio;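 active = replicate mean at a twofold rise or more, about +100% in these data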;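 note: firefly luciferase made from a UUG start codon reports start codon fidelity; reporter light over untreated wells divided by growth signal over untreated wells; some hits fall short of that in this replicate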
CSC inhib: blocks cancer stem cells; cancer stem cell-like cells viability, luminescence; inhibition, % at 7.5 µM; AID 2717; actives 1.1% (n = 300,000);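 active = mean at 75% or more and at least half the replicates too; inconclusive = mean and replicates disagree; tested in HMLE shEcad cells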;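 note: 0% = median of negative and 100% = median of positive control wells; the first replicate is given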
PABP FP inh: PABP-poly(A) binding inhibition. P11940. PABP-poly(A) RNA binding, fluorescence polarization. inhibition, % at 35 µM. actives 1% (n = 290,000). AID 2014;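 active = 50% or more with normal probe brightness, or confirmed in later tests; inconclusive = above 50% with abnormal brightness, or retests that disagree; inactive = below 50% or failed in later tests; about a fifth of its hits are not listed in these tables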;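 note: calls also rest on retests at 20 µM and on dose response follow-up; controls were probe without protein and protein plus probe with vehicle; some compounds called inactive have numbers as strong as hits; many hits fall short of the cut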
MT1-MMP act inh: MT1-MMP (human) activation inhibition | P50281 | HT1080 RFP-PRO-GFP cells, GFP/RFP ratio fluorescence, overnight; percent of plate control window, DMSO zero | GFP/RFP ratio change, % at 20 µM | actives 0.061% (n = 360,000);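 active = GFP/RFP ratio change of at least 30% with cell ATP level not reduced by more than half and red fluorescence within 50% of control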; note: strong numbers were not always called active
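Test system: HT1080 RFP-PRO-GFP cells; Benchmarks: DMSO and RFP-L50D-GFP cell wells; Timing: cells overnight before dosing, compound overnight, 37 °C, 5% CO2; Compound: one 20 µM compound dose with 1% DMSO; Read-out: GFP/RFP fluorescence ratio.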
eIF4H inh: inhibitors of RNA binding by human eIF4H; Q15056; eIF4H fluorescence polarization binding assay; inhibition, % at 35 µM; actives 0.94% (n = 290,000);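 active = 50% or more with normal probe brightness, or confirmed in later tests; inconclusive = above 50% with abnormal brightness, or retests that disagree; inactive = below 50% or failed in later tests; about a fifth of its hits are not listed in these tables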;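 note: calls also rest on retests at 20 µM and on dose response follow-up; 0% = protein and probe with vehicle and 100% = probe without protein; strong numbers were not always called active; many hits fall short of the cut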
HIV Env fusion: inhibitors of HIV Env-mediated cell fusion; HeLa-JRFL Env/CEM21 cell fusion, luciferase; inhibition, % at 12.3 µM; actives 1.1% (n = 360,000);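 active = mean replicate inhibition score of at least 50 and every replicate individually at or above 50; inconclusive = only one of the two criteria met; inactive = mean below 50 and not all replicates reaching 50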;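 note: 0% = plate neutral controls and 100% = maraviroc near 300 nM; one replicate is shown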
eIF4H inh retest: further read-out of eIF4H inh, marked with its call; inhibition, %; compound at 20 µM; confirmation average;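 mean of two retest wells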
PABP FP inh retest: further read-out of PABP FP inh, marked with its call; inhibition, %; compound at 20 µM; confirmation repeats;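 mean of two retest wells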
MT1-MMP act inh RFP: also measured in MT1-MMP act inh; calls as there; RFP signal change, %; measured here: RFP expression control read;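 0 = vehicle wells; hits needed this value within 50% of zero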
Starred values were filed as active, the others as inactive; i = inactive; ? = inconclusive; nt = no result given; [ ] = dose if it differs, or a comment. Only part of the results is shown (hit frequency here may not be typical).

SMILES | Rce1 inh | Yeast UUG start | CSC inhib | PABP FP inh | MT1-MMP act inh | MT1-MMP act inh RFP | eIF4H inh | HIV Env fusion | others
CN(C)c1ccc(/C=C(/C(=O)c2ccc(Cl)cc2Cl)n2cncn2)cc1 | i | nt | -7 | 9 | -82 | 6 | ? | -30
CCOC(=O)c1cc(C(C)C)sc1NC(=O)COC(=O)c1nccnc1N | i | -18 | -1 | nt | 9 | -2 | nt | 3
COc1ccc(NC(=O)CS(=O)CC(=O)N2CCN(C3CCCC3)CC2)cc1 (configuration not stated) | i | -6 | -9 | 11 | 4 | 3 | 11 | 0
CCc1cc2cccc(C)c2nc1SCC(=O)c1ccc(NC(C)=O)cc1 | i | -8 | 121* | 0 | -10 | 2 | -7 | nt
Cn1c(SCC2CCCO2)nnc1-c1ccncc1 (configuration not stated) | i | -5 | -15 | 4 | 0 | 2 | 2 | 15
Cc1cc(C)n(-c2ncc(C#N)cn2)n1 | i | nt | 11 | 2 | 2 | 2 | -6 | 3
CCN1CCC(NC(=O)Nc2ccccc2C(=O)OC)CC1 | i | nt | -20 | -2 | 2 | 3 | 7 | 9
COc1ccccc1/C=N\NC(=O)c1ccc(COc2ccc(C)c(C)c2)o1 | i | nt | 0 | nt | 0 | 2 | nt | -18
O=C(N1CCOCCOc2ccccc2OCCOCC1)C(F)(F)F | i | -25 | -8 | -7 | 0 | -1 | -8 | 7
CS(=O)(=O)c1ccc(C(=O)NCc2ccc(F)cc2)cc1 | i | 18 | -10 | -8 | -1 | -1 | 3 | -9
O=C(c1ccccc1C(=O)N1CCN(c2ccccc2)CC1)N1CCN(c2ccccc2)CC1 | i | -2 | -17 | 118* | -83 | 7 | 127* | -77 | eIF4H inh retest=88*;PABP FP inh retest=78*
Cc1ccc(S(=O)(=O)N2CCCC(CCC(=O)NCc3ccccc3F)C2)s1 (configuration not stated) | i | nt | -7 | -2 | -3 | 3 | 3 | 8
COc1ccc(-c2nnc(SCC(=O)NC(C)c3ccccc3)o2)cc1OC (configuration not stated) | i | 3 | -1 | 2 | 0 | -1 | -1 | nt
COc1cc(S(=O)(=O)NCCc2ccc3c(c2)OCO3)ccc1-n1cnnn1 | i | -13 | 10 | -2 | 3 | -1 | -7 | nt
Cc1cc(SCC(=O)OCC(=O)NCC2CCCO2)c(C)cc1Br (configuration not stated) | i | nt | 14 | -2 | -2 | 1 | -6 | 19
O=C(Cc1ccc(Br)c2ccccc12)N/N=C/c1ccccn1 | i | nt | 43 | -4 | 0 | -7 | 6 | 19
COc1cccc2cc(C(=O)N3CCc4ccccc4C3)c(=O)oc12 | i | -13 | -14 | 4 | 4 | -4 | -10 | nt
COc1cc2nc(Nc3ccc(C)c(C)c3)nc(N)c2cc1OC | i | -13 | 9 | -15 | 8 | 2 | -14 | -12
CC(C)c1ccccc1NC(=S)NCc1nc2ccccc2[nH]1 | i | nt | -12 | 0 | 2 | 0 | 4 | 7
CCOC(=O)[C@H]1[C@H]2COc3ccc(Br)cc3[C@@H]2N2C(=O)N(c3ccccc3)C(=O)[C@@]12C | nt | -8 | -6 | nt | 10 | -4 | nt | -31
O=[N+]([O-])c1ccc(N/N=C2\CC3CC=CC23)c([N+](=O)[O-])c1 (configuration not stated) | i | nt | 11 | 10 | 15 | -5 | -1 | -5
COc1ccc(OC)c(-n2c(SCC(=O)NCc3ccco3)nnc2-c2c[nH]c3ccccc23)c1 | i | -15 | nt | -2 | 4 | 2 | -10 | 35
O=[N+]([O-])c1ccccc1CNC(Cc1ccccc1)c1ccccc1 (configuration not stated) | i | 1 | -11 | -5 | -5 | -1 | -8 | nt
O=C(CSc1nnc2c(n1)[nH]c1ccc(F)cc12)NCc1ccc(F)cc1 | i | -8 | 4 | -4 | 0 | -5 | -9 | 6

Next section; it opens with the 2 that closed the last part.
SMILES | Rce1 inh | Yeast UUG start | CSC inhib | PABP FP inh | MT1-MMP act inh | MT1-MMP act inh RFP | eIF4H inh | HIV Env fusion | others
O=[N+]([O-])c1ccccc1CNC(Cc1ccccc1)c1ccccc1 (configuration not stated) | i | 1 | -11 | -5 | -5 | -1 | -8 | nt
O=C(CSc1nnc2c(n1)[nH]c1ccc(F)cc12)NCc1ccc(F)cc1 | i | -8 | 4 | -4 | 0 | -5 | -9 | 6
CN(C)C(=O)C[C@@H]1CC[C@@H](NC(=O)C2CCC2)[C@@H](CO)O1 | nt | -8 | nt | nt | -1 | 5 | nt | 7[16.7 µM]
CN(Cc1ccc(F)cc1)S(=O)(=O)c1nnc(NC(=O)c2ccccc2)s1 | i | -10 | 51 | -5 | 4 | -6 | -5 | 3
O=C(CCN1CCOCC1)c1ccc(Br)cc1 | i | -3 | 11 | -9 | 0 | 4 | -2 | 9
O=C(CSc1ncnc2c1cnn2-c1ccc(Cl)cc1)NCc1ccc2c(c1)OCO2 | i | -19 | -3 | 14 | 1 | -9 | 4 | -148
O=c1c2ccccc2nc2c3ccccc3c(Cl)nn12 | i | nt | nt | -2 | nt | nt | -10 | nt
CSc1ccc(S(=O)(=O)Nc2c(C)n(C)n(-c3ccccc3)c2=O)cc1 | i | -14 | -12 | 0 | 1 | 7 | 15 | -39
O=C(Nc1ccccn1)c1cc(-c2ccc(Cl)s2)nc2ccccc12 | nt | -10 | 5 | nt | -2 | -1 | nt | -44
COCCOc1ccc(C(F)(F)F)cc1N | i | nt | -7 | -6 | 1 | 5 | 12 | 8
CC(=O)Nc1ccc(-c2ccnc3c2CC(C(=O)NC(C)C)O3)cc1 (configuration not stated) | nt | -4 | nt | nt | 4 | 7 | nt | 16
CC(C)c1nnc(NC(=O)CCC(=O)NCc2ccco2)s1 | i | -7 | 2 | 9 | 0 | 1 | 2 | nt
COc1cccc(C2(O)CCN(CC(=O)NCC3CC3)CC2)c1 | i | -7 | -8 | 32 | 0 | 7 | -6 | 3
Cn1c(=O)c2nc3ccccc3nc2n(C)c1=O | i | 1 | -20 | 29 | 1 | 9 | 11 | 14
CN1CCN(NC(=O)c2cccc(F)c2)CC1 | i | -4 | 10 | -2 | -4 | 0 | -10 | nt
CC(Sc1ncnc2ccccc12)C(=O)Nc1ccc2c(c1)OCCO2 (configuration not stated) | i | nt | 13 | -5 | 0 | -15 | 8 | 31
c1cnc(SCCOc2ccc3c(c2)CCC3)nc1 | i | -27 | 9 | -7 | 0 | 0 | -5 | -118
Cc1cc(C)cc(OCC(=O)O/N=C(\N)c2cccnc2)c1 | i | -2 | nt | 0 | 2 | -5 | -7 | -5
COc1cc(/C=N/NC(=O)c2sc(N)c(C#N)c2C)cc(Br)c1O | i | -8 | nt | -5 | -2 | -5 | -3 | nt
COc1ccc(C(=O)NNC(=S)NC(=O)C(C)(C)C)cc1 | i | -36 | 19 | -10 | 3 | -3 | 0 | 21
CC1CN(C(=O)COC(=O)[C@@H]2CC(O)CN2S(=O)(=O)c2ccc3c(c2)OCCO3)CC(C)O1 (some centres not stated) | i | 1 | -5 | -11 | -1 | 2 | -3 | -10
O=C(NCc1ccc(Cl)nc1)c1csc([C@@H]2O[C@H](CO)[C@H](O)[C@H](O)[C@H]2O)n1 | nt | -16 | nt | nt | 0 | 5 | nt | -5
O=C(Nc1ccc(N2CCOCC2)c(F)c1)c1ccncc1 | i | 2 | 6 | 3 | -1 | -4 | 1 | nt
O=C(c1cc2ccccc2oc1=O)N1CCN(C(=O)C2CCCO2)CC1 (configuration not stated) | i | 26 | -5 | -5 | 2 | 4 | -7 | nt
COc1cccc2c(=O)n(CC(=O)NCCc3ccccc3)ccc12 | i | nt | nt | -12 | 2 | 4 | 11 | 4
O=C1c2ccccc2C(Nc2ccc(S(=O)(=O)N3CCOCC3)cc2)N1Cc1ccco1 (configuration not stated) | i | 3 | -4 | 2 | -4 | 0 | -10 | nt

Reprinted from the part before: four compounds; new compounds follow.
SMILES | Rce1 inh | Yeast UUG start | CSC inhib | PABP FP inh | MT1-MMP act inh | MT1-MMP act inh RFP | eIF4H inh | HIV Env fusion | others
O=C(Nc1ccc(N2CCOCC2)c(F)c1)c1ccncc1 | i | 2 | 6 | 3 | -1 | -4 | 1 | nt
O=C(c1cc2ccccc2oc1=O)N1CCN(C(=O)C2CCCO2)CC1 (configuration not stated) | i | 26 | -5 | -5 | 2 | 4 | -7 | nt
COc1cccc2c(=O)n(CC(=O)NCCc3ccccc3)ccc12 | i | nt | nt | -12 | 2 | 4 | 11 | 4
O=C1c2ccccc2C(Nc2ccc(S(=O)(=O)N3CCOCC3)cc2)N1Cc1ccco1 (configuration not stated) | i | 3 | -4 | 2 | -4 | 0 | -10 | nt
COc1ccc(CCNC(=O)c2cc(-c3cc(C)ccc3O)n[nH]2)cc1OC | i | 2 | -15 | -10 | 6 | -2 | -6 | nt
O=c1[nH]c2ccsc2c(=O)n1-c1ccc(F)cc1 | i | -2 | -3 | -16 | -2 | 2 | 1 | -22
Cc1csc(NC(=O)Cc2c(F)cccc2Cl)n1 | i | -11 | 7 | 11 | -3 | 0 | -5 | -25
COc1ccc2c(c1)c1nnc(SCC(=O)Nc3ccccc3F)nc1n2C | i | -14 | 3 | -1 | -1 | -1 | 12 | -18
COc1ccc(-c2cc(C)no2)cc1S(=O)(=O)N(C)Cc1ccco1 | i | -16 | 0 | -5 | -3 | -6 | -1 | 8
Cc1nn(C)c(Cl)c1CN1CCCC(CO)(Cc2ccccc2)C1 (configuration not stated) | i | nt | -1 | 10 | -2 | 1 | 0 | 18
COc1cc(C)ccc1OCC(=O)OCC(=O)c1cc(C)n(CC2CCCO2)c1C (configuration not stated) | nt | 6 | 0 | nt | -1 | -1 | nt | -3
Cc1ccc(NC(=O)C(C)N2CCCC2)cc1Cl (configuration not stated) | nt | nt | -14 | -16 | -2 | 2 | -9 | 8
COc1cc2nc(Cl)nc(NCCO)c2cc1OC | i | nt | -15 | -8 | 6 | 3 | 6 | 12
O=C(COC(=O)c1ccco1)c1ccc(F)cc1 | i | -35 | -17 | 5 | -3 | -1 | -1 | 16
O=C(c1cc[n+]([O-])cc1)N1CCCC(N2CCN(c3cccc(C(F)(F)F)c3)CC2)C1 (configuration not stated) | i | -6 | 6 | 9 | -1 | -5 | -3 | -7
COC(=O)c1ccc(NC(=O)CSc2nncn2-c2cccnc2)cc1 | i | nt | nt | 8 | -1 | 3 | -11 | -2
Cc1ccc(C23CC4CC(CC(NC(=O)NN)(C4)C2)C3)cc1 | i | -5 | -7 | 4 | -1 | -4 | -4 | 2
